Screens (PubChem)
Mtb H37Rv: Mycobacterium tuberculosis H37Rv growth inhibition, cell based, confirmatory dose response (AID 1949); most inactive calls were filed without a number and no value below 0 was filed; one-dose inhibition, % at 10 µg/mL; IC50 in µg/mL for titrated hits; hit rate 1.6% among 100,000;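 active = confirmed in a dose series; inconclusive = about 50% or more but not retested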;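 also: bacteria grown 7 days with compound before Alamar blue readout; 0% = untreated bacteria and 100% = reference antibiotic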
* marks the source's active call; other numbers are inactive results; i = inactive; ? = inconclusive. This is a subset (hit frequency here may not be typical).

SMILES	Mtb H37Rv
C=CCn1c(SCc2ccc(F)cc2)nc2c1c(=O)[nH]c(=O)n2C	i
O=C(c1ccc(C(=O)N2CCCc3ccccc32)cc1)N1CCCc2ccccc21	0%
Cc1ccc(Cl)cc1N1CCN(CC(O)COCC2COc3ccccc3O2)CC1 (centres undefined)	5.2µg/mL*
O=C(Nc1sc2c(c1C(=O)NCc1cccnc1)CCCCC2)c1cccnc1	i
O=C(Nc1cccc(C(=O)NC2CCCCCC2)c1)c1ccccc1	i
O=C(c1cccnc1)N1CCC(Cc2ccccc2)CC1	i
O=C(NCc1cccs1)C1CC(=O)N(c2ccc(Cl)cc2)C1 (centres undefined)	i
CN(c1cccc(NC(=O)CSCc2ccccc2Cl)c1)S(C)(=O)=O	i
COc1ccc(-c2cc(=O)c3cc(OC(=O)c4cc(OC)c(OC)c(OC)c4)ccc3o2)cc1	i
O=C(COc1ccc(NC(=O)c2cccs2)cc1)c1ccc(F)cc1	i
COc1ccc(Cl)cc1C(=O)Nc1ccccc1C(=O)N1CCOCC1	i
CC(CCc1ccccc1)NC(=O)c1ccc(-c2ccccc2)cc1 (centres undefined)	i
CC(C(=O)N1CCN(c2ccccc2)CC1)N(c1ccc(Oc2ccccc2)cc1)S(C)(=O)=O (centres undefined)	i
COC(=O)c1ccc(Oc2nc(-c3cccnc3)nc3ccccc23)cc1	i
COc1ccccc1N/C(=N\S(=O)(=O)Cc1ccccc1)Nc1nc(C)cc(C)n1	i
COc1ccc(-n2c(SCC(=O)N3CCOCC3)nnc2-c2ccccc2)cc1	i
Cc1c(NC(=O)Nc2cccc(C#N)c2)c(=O)n(-c2ccccc2)n1C	i
Cc1cc(Oc2c(C(F)(F)F)oc3c(CN4CCOCC4)c(O)ccc3c2=O)cc(C)c1Cl	i
CCOC(=O)c1ccc(NC(=O)NNC(=O)c2sccc2C)cc1	i
CCOc1cc(C2C(C(=O)c3cccs3)=C(O)C(=O)N2c2nc(C)c(C)s2)ccc1O (centres undefined)	i
O=C(Nc1cccnc1)c1cccc(F)c1	i
O=C1CC(c2ccccc2)CC2=C1C(c1cccc([N+](=O)[O-])c1)Nc1ccccc1N2 (centres undefined)	1%
COc1cccc(CN2CCC(C(=O)N3CCN(c4ccccc4F)CC3)CC2)c1OC	2%
CCn1c(CCc2ccccc2)nnc1SCC(=O)Nc1ccc(Br)cc1C(F)(F)F	i
CCOC(=O)c1c(NC(=O)Cc2ccc(OC)cc2)sc(C(=O)Nc2ccc(C)c(Cl)c2)c1C	i
COc1ccc(NC(=O)CCSc2ccc(C)cc2)cc1	i
COc1ccc(S(=O)(=O)N(CC(=O)NCCC(C)C)c2ccccc2)cc1OC	i
Cc1ccc(S(=O)(=O)Nc2cccc3cccnc23)cc1	?
O=C(Nc1ccccc1)NC1CCCCC1	i
Cn1c(OCc2cccnc2)nc2c1c(=O)n(Cc1ccc(Cl)c(Cl)c1)c(=O)n2C	i
C=CCn1c(SCC(=O)Nc2ccc(C(=O)OCC)cc2)nnc1C(C)NC(=O)c1ccc(Cl)cc1Cl (centres undefined)	i
CCOC(=O)CCCSc1nc2sc(C)c(C)c2c(=O)n1-c1ccccc1	i
COc1ccc(N2CCN(c3ncnc4sc(C)c(C)c34)CC2)cc1	3%
O=C(CC12CC3CC(CC(C3)C1)C2)N1CCN(c2ccc([N+](=O)[O-])cc2)CC1	3%
O=C(Cc1ccccc1)N1CCN(c2ccc([N+](=O)[O-])c(NC3CC3)c2)CC1	i
CCC(C)c1ccccc1OCC(=O)Nc1cc(Cl)c(Cl)cc1Cl (centres undefined)	7%
O=C(Nc1ccc(Cl)cc1C(=O)NCc1cccnc1)c1ccco1	i
CCCn1c(CNC(=O)c2cccc(C)c2)nc2ccccc21	5%
Cc1ccc(-n2nnnc2Sc2nc([N+](=O)[O-])nn2C)cc1	?
COc1cccc(C(=O)Nc2ccc(Cl)cc2F)c1	0%
O=c1c2ccccc2[nH]c(=S)n1CCCn1ccnc1	i
CCOc1c(OC)cccc1C1C(C(=O)Nc2ccccc2OC)=C(C)Nc2ncnn21 (centres undefined)	i
COc1ccccc1-n1c(SCC(=O)Nc2ccccc2C)nc2ccc(I)cc2c1=O	2%
CCc1cccc(OCCCCNCCCOC)c1	i
NC(=O)c1ccc(NC(=O)CCC2CCCCC2)cc1	i
O=S(=O)(Nc1cccc2ccccc12)c1ccc(-c2ccccc2)cc1	0%
Cc1ccc(NC(=O)NC(=O)c2ccccc2)cc1F	i
COc1cccc(C(=O)Nc2sc3c(c2C(N)=O)CCCCCC3)c1	?
c1ccc2c(NC3CCCC3)nc(N3CCNCC3)nc2c1	6%
CC(=O)N1CCN(c2ccccc2NC(=S)NC(=O)CC23CC4CC(CC(C4)C2)C3)CC1	0%
CC(C)(C)NC(=O)CCc1ccc(S(=O)(=O)NCCc2ccccc2)cc1	i
Cc1cc(C)c(S(=O)(=O)N(C)CC(=O)Nc2ccc(Cl)cc2Cl)c(C)c1	0%
O=[N+]([O-])c1ccc(COc2ccc(CNc3ccccc3)cc2)cc1	5%
CCn1c(Cc2ccc(OC)cc2)nnc1SCC(=O)Nc1cccc(C(=O)OC)c1	i
CS(=O)(=O)Nc1ccc(Oc2ccccc2)cc1	7%
CC(=O)Nc1ccc(SC(F)(F)C(F)(F)C(F)(F)F)cc1	3%
CN(C)c1ccc(C(=S)NCCc2ccccc2)cc1	i
CCc1ccc(NC(=O)C2C3C4CCC(C4)C23)cc1 (centres undefined)	50%
CS(=O)(=O)N(CC(=O)Nc1cc(Cl)ccc1Cl)Cc1ccccc1	i
Cc1ccc(NC(=S)NC(=O)c2cccc(Cl)c2Cl)cc1[N+](=O)[O-]	i
(list continues)
SMILES	Mtb H37Rv
CCOc1cc(CNC(CC)CC)ccc1OC	i
Cc1nn(-c2ccccc2)c(OC(=O)COc2ccc(F)cc2)c1Sc1ccccc1[N+](=O)[O-]	i
C=CCn1c(SCC(=O)c2ccc3c(c2)OCO3)nc2sc(C)c(C)c2c1=O	i
Cn1cnnc1SCC(=O)Nc1cccc2ccccc12	i
CC1CCCN(CCCOc2ccccc2C(C)(C)C)C1 (centres undefined)	i
CCc1sc(C(=O)Nc2cccc(Cn3cccn3)c2)cc1Br	33%
Cc1cc(=O)oc2ccc(OCC(=O)N(Cc3ccc(F)cc3)Cc3ccco3)cc12	5%
CC1CCCC(C)N1C(=O)CSc1nnc(-c2ccc(Cl)cc2)n1C (centres undefined)	i
COc1cc(C(=O)Nc2ccc(O)cc2)ccc1OC(C)=O	i
O=C(Nc1c(F)c(F)c(F)c(F)c1F)c1ccncc1	i
O=C(NS(=O)(=O)c1ccc2c(c1)OCCO2)c1ccccc1	i
Cc1ccccc1OCc1nnc(SCC(=O)N2CCc3ccccc32)n1C	i
CCc1cc(C(=O)OC)c(NC(=S)Nc2nn(Cc3ccccc3F)cc2Br)s1	i
COc1cc(C2C3=C(CC(C)(C)CC3=O)Nc3[nH]n(-c4ccccc4)c(=O)c32)ccc1OC(C)=O (centres undefined)	i
CCOC(=O)c1c(C)nc(C)c(C(=O)OCC)c1-c1cccc(NC(=O)c2ccc(F)cc2)c1	i
O=C(Nc1ccc(F)cc1F)Nn1cnnc1	i
CSc1ccccc1NC(=O)c1cc(C)on1	i
c1cc(-c2noc(CCC3CCCCC3)n2)ccn1	i
CCOc1ccc(NS(=O)(=O)c2ccc(NC(=O)c3cccc(C)c3)cc2)cc1	i
COc1cc(NC(=O)Cc2ccc(Cl)cc2)ccc1NC(=O)c1ccccc1Cl	i
COc1ccc(C(=O)Nc2ccc(C)c(F)c2)cc1	1%
COc1ccc(C(=O)N2CCN(S(=O)(=O)c3ccccc3)CC2)cc1OC	i
Oc1cccc2ccc(/C=C/c3cccc(Cl)c3Cl)nc12	?
CCCC(C)c1nnc(NC(=O)C(CC)c2ccccc2)s1 (centres undefined)	i
O=C(Cc1ccccc1)Nc1ccc(OC(F)F)cc1	1%
COc1ccc(NC(=O)c2ccccc2OC)c(OC)c1	46%
CCCCOCC1CC2(CC(C)(c3csc(Nc4ccc(C)cc4)n3)OC2=O)C(=O)O1 (centres undefined)	i
CC(=O)C1=C(C)NC(=O)NC1c1ccc(-c2ccc(Br)cc2)o1 (centres undefined)	i
Cc1ccc2[nH]c(-c3ccccc3)c(CN(C)C)c(=O)c2c1	i
CC1(C)C(=O)OC(c2ccc(Br)cc2)C2(Cc3ccccc3C2)C1=O (centres undefined)	i
CC(C)c1ccc(OCc2nnc(SCC(=O)Nc3ccc(Br)c(Cl)c3)o2)cc1	i
CCOC(=O)c1c(NC(=O)CCCOc2cccc(C)c2)sc(C)c1C	i
COc1ccc(S(=O)(=O)N2CCC(C(=O)Nc3ccc(C(F)(F)F)cc3)CC2)cc1Cl	0%
CCOc1ccccc1N(CC(N)=O)S(C)(=O)=O	i
CCc1cccc(NS(=O)(=O)c2ccc(Cl)cc2)c1	2%
O=S(=O)(CCSc1nc2ccccc2o1)Cc1ccccc1	i
COc1cc(C(=O)Oc2ccc3c(oc(=O)c4ccccc43)c2C)cc(OC)c1OC	i
COc1ccc(CNC(=O)CN(C)S(=O)(=O)c2ccc(Cl)cc2)cc1	8%
Cc1ccc(N(CC(=O)Nc2c(C)cc(C)cc2C)S(=O)(=O)c2ccc(F)cc2)cc1	i
CC(C)c1ccccc1NC(=O)CCCC(=O)O	i
O=S(=O)(Nc1ccc(F)cc1F)c1ccc(Br)s1	i
O=C(CCN1C(=O)C2C3C=CC(C4CC34)C2C1=O)Oc1ccc(Cc2ccccc2)cc1 (centres undefined)	17%
COc1ccccc1N1CCN(CCOc2ccc(Cl)cc2)CC1	i
Cc1cc(OCc2ccc(F)cc2F)c2c(C)cc(=O)oc2c1	i
CCN1CCN(S(=O)(=O)c2ccc(OC)c(C)c2)CC1	i
O=C(Nc1ccccc1Cl)c1cn(-c2ccccc2)nc1-c1ccc(Cl)s1	i
COc1cccc(/C(N)=N/OC(=O)c2ccc(C)cc2C)c1	28%
S=C(NCCc1c[nH]c2ccccc12)NC1CCCCC1	i
Cc1oc(-n2c(C)ccc2C)c(C#N)c1C	i
CC1=CC(C)(C)N(C(=O)Nc2ccc(F)cc2)c2ccccc21	i
CC(CO)(CO)NC(=O)NC1CCCCC1	i
COc1ccc(Cl)cc1NC(=S)NNC(=O)c1cc(C)nc2ccccc12	1%
C=CCSc1nnc(-c2cccc(Cl)c2)n1-c1ccccc1	i
CCOC(=O)c1cnc2cc(-c3ccc(C)cc3)nn2c1C	1%
Cc1sc(NC(=O)c2ccc(F)c(F)c2)nc1-c1ccccc1	4%
O=C(Nc1ccc(N2CCCC2)cc1)c1cccc([N+](=O)[O-])c1	2%
Cn1c(COc2ccc(Cl)cc2)nc2ccccc21	i
CC1=CC(C)(C)N2C(=O)C(=O)c3c(C)c(C)cc1c32	i
CCC(=O)Nc1ccc(C(=O)OCc2cccc(F)c2)cc1	4%
Fc1ccccc1Cn1c(Cc2ccccc2)nc2ccccc21	3%

Reformatted bar-delimited: entries from further up.
structure | Mtb H37Rv
O=S(=O)(Nc1ccc(F)cc1F)c1ccc(Br)s1 | i
O=C(CCN1C(=O)C2C3C=CC(C4CC34)C2C1=O)Oc1ccc(Cc2ccccc2)cc1 (centres undefined) | 17%
COc1ccccc1N1CCN(CCOc2ccc(Cl)cc2)CC1 | i
Cc1cc(OCc2ccc(F)cc2F)c2c(C)cc(=O)oc2c1 | i
CCN1CCN(S(=O)(=O)c2ccc(OC)c(C)c2)CC1 | i
O=C(Nc1ccccc1Cl)c1cn(-c2ccccc2)nc1-c1ccc(Cl)s1 | i
COc1cccc(/C(N)=N/OC(=O)c2ccc(C)cc2C)c1 | 28%
S=C(NCCc1c[nH]c2ccccc12)NC1CCCCC1 | i
Cc1oc(-n2c(C)ccc2C)c(C#N)c1C | i
CC1=CC(C)(C)N(C(=O)Nc2ccc(F)cc2)c2ccccc21 | i
CC(CO)(CO)NC(=O)NC1CCCCC1 | i
COc1ccc(Cl)cc1NC(=S)NNC(=O)c1cc(C)nc2ccccc12 | 1%
C=CCSc1nnc(-c2cccc(Cl)c2)n1-c1ccccc1 | i
CCOC(=O)c1cnc2cc(-c3ccc(C)cc3)nn2c1C | 1%
Cc1sc(NC(=O)c2ccc(F)c(F)c2)nc1-c1ccccc1 | 4%
O=C(Nc1ccc(N2CCCC2)cc1)c1cccc([N+](=O)[O-])c1 | 2%

(more compounds)
SMILES	Mtb H37Rv
COc1ccc(-c2cc(=O)oc3cc(OCC(=O)NC4CCCCC4)ccc23)cc1	i
Cc1ccc(OC(C)C(=O)NNC(=O)C(c2ccccc2)c2ccccc2)cc1 (centres undefined)	2%
O=C(O)CCN1C(=O)c2ccc(-c3nc4ccccc4c(=O)o3)cc2C1=O	i
Fc1cccc(Cl)c1-c1nnc2ccc(N3CCCCC3)nn12	3%
O=C1c2ccccc2C(=O)N1CCn1c2ccc(Br)cc2c2nc3ccccc3nc21	i
O=C(c1ccc(Br)o1)N1N=C(c2ccc(Cl)cc2)CC1c1ccco1 (centres undefined)	i
COc1ccc(Cl)cc1NC(=S)Nc1ccc2c(c1)CCC2	i
COc1ccc(C(=O)Nc2nnc(C3CCCCC3)s2)c(OC)c1	7%
Cc1ccc(C(=O)O)cc1NS(=O)(=O)c1ccc([N+](=O)[O-])cc1	20%
CCOc1ccc(S(=O)(=O)NC2CCCCCC2)cc1	i
O=C(CSc1nc2ccccc2o1)c1ccc(Cl)c(Cl)c1	0%
COc1ccc(N/C=C(\C#N)C(N)=S)cc1OC	i
O=C1N(c2ccccc2)CCN1c1ccccc1	1%
NC(=O)c1cc(-c2ccccc2)sc1NC(=O)c1ccc2ccccc2c1	5%
Cc1ccc(NC(=O)CSc2ccc(Br)cc2)cc1[N+](=O)[O-]	i
COc1ccc(S(=O)(=O)N(CC(=O)Nc2cccc(C)c2C)c2cc(C)cc(C)c2)cc1OC	i
Cc1ccc(NS(=O)(=O)c2ccc(-c3ccccc3)cc2)cc1C	?
O=C(c1cc2ccccc2oc1=O)N1CCN(CCc2ccccc2)CC1	i
O=S(=O)(NCc1ccc2[nH]c3c(c2c1)CCCC3)c1ccc(Cl)cc1	10%
O=S1(=O)NC(=NCc2ccco2)c2ccccc21	i
S=C(NCc1ccc2c(c1)OCO2)Nc1ccc2nc(-c3ccco3)c(-c3ccco3)nc2c1	i
